Assay outcomes from PubChem BioAssay.
KCNQ2 pot: potentiators of rat KCNQ2 potassium channel. Potassium voltage-gated channel subfamily KQT member 2 (Rattus norvegicus), O88943. CHO-K1 KCNQ2, FluxOR thallium flux fluorescence; stronger effect = higher value. B-score at 10 µM. 310,000 compounds, 0.54% hits. AID 2239, 2010;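 active = fluorescence ratio B-score at least 3 SD of library B-scores, with initial fluorescence B-score within 3 SD, cut at about 5.3 in these data; same plate scores as AID 2156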;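 also: B-score of peak minus minimum over baseline fluorescence ratio after K+ and Tl+ stimulus; positive B-score means potentiation of KCNQ2 with more thallium influx and brighter signal; only the inactives scoring about 0 or higher are listed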
Target sequence (O88943 whole entry, looked up): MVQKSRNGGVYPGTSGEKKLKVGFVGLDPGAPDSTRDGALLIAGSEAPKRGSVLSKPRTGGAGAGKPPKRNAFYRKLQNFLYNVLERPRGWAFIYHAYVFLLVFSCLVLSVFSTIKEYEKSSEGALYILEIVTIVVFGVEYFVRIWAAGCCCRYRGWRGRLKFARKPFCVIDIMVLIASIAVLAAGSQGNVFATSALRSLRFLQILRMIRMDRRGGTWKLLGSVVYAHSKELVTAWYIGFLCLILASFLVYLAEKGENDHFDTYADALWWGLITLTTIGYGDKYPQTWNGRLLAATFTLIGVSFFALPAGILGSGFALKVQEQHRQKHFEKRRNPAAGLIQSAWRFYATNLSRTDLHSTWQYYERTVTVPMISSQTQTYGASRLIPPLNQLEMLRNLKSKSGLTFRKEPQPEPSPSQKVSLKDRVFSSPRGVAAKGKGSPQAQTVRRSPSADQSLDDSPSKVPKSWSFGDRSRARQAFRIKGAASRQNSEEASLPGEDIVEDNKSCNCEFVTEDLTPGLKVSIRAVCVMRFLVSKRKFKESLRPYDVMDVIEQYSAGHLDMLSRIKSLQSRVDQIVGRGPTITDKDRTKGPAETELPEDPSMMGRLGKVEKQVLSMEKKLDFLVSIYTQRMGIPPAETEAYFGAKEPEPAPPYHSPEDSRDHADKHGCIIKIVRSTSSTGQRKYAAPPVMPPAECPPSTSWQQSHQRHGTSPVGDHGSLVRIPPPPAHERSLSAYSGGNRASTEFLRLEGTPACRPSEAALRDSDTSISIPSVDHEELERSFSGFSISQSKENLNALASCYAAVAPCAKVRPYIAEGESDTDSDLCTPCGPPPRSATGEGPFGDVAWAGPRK
KCNQ2 pot baseline: further read-out of KCNQ2 pot, marked with its call; B-score; compound at 10 µM; measured here: initial fluorescence intensity artifact check;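 brightness before thallium and not channel activity; 0 = typical well and far values either way flag optical interference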
Numbers without * were called inactive. Not all compounds are listed (hit frequency here may not be typical).

KCNQ2 pot	KCNQ2 pot baseline	Molecule
1.83	-0.29	O=C(N/N=C/c1ccc2nccnc2c1)c1ccc(Br)cc1
1.32	-0.53	COc1cccc(/C=N/n2nnnc2N)c1OCc1ccccc1Cl
1.03	2.29	COc1ccc(CNC(=O)c2cnn3c(C(F)F)cc(C)nc23)cc1OC
0.44	1.22	CCn1cc(C(=O)NCCCN(CC(C)C)CC(C)C)c(=O)c2cc(S(=O)(=O)N(C)C3CCCCC3)ccc21
1.83	-0.01	COC(=O)CC(NC(=O)Nc1ccccc1F)c1ccc2c(c1)OCO2 (centres undefined)
1.26	-0.42	O=C(OCCOc1ccc(Br)cc1)c1cnccn1
0.01	1.11	Cc1c(Cc2ccccc2)c(=O)oc2c(C)c(OCC(=O)Nc3ccc(C#N)cc3)ccc12
1.37	-1.7	O=C(CN1CCN(c2ccc(F)cc2)CC1)Nc1nccs1
2.71	-0.95	CCOc1ccccc1C(=O)NC(C)c1ccc2c(c1)OCO2 (centres undefined)
1.3	-0.95	COc1ccc2oc(C(=O)OCC(=O)Nc3ccc(N4CCOCC4)cc3)c(C)c2c1
1.32	-0.66	O=C(c1ccco1)N1CCN(Cc2cn[nH]c2-c2ccc(F)cc2F)CC1
0.81	1.44	O=C(O)c1nn(CC(=O)N2CCN(c3ccccc3)CC2)c(=O)c2ccccc12
0.03	-0.51	CCN1CCN(CCCNC(=O)c2ccc3c(=O)n(CCc4ccccc4)c(=O)[nH]c3c2)CC1
28.1*	-0.1*	COC(=O)c1cn(NC(=O)CCC2CCCC2)c(=O)c2ccccc12
0.82	0.8	COC(=O)CC1C(=O)NCCN1C(=S)NC(=O)c1ccccc1[N+](=O)[O-] (centres undefined)
1.15	-0.48	Cc1ccc(NCc2nnc(SCCN3CCCCC3)n2CC2CCCO2)cc1Cl (centres undefined)
0.05	1.01	CCC(CC)C(=O)Nc1nnc(S(=O)(=O)N2CCCC2)s1
2.36	-0.65	CC(=O)N(C)c1ccc(NC(=O)C(F)(F)F)cc1
2.19	-1.25	Clc1ccc(COc2ccccn2)cc1Cl
0.03	-0.36	O=C(OCc1nc2scc(-c3ccccc3)c2c(=O)[nH]1)c1cc([N+](=O)[O-])ccc1Cl
2.36	0.33	COC(=O)c1ccc(NC(=S)NC2CCCCC2C)cc1 (centres undefined)
0.37	-1.68	Cc1ccc(C(=O)N/N=C/c2c[nH]c3ccccc23)o1
1.25	-0.13	COc1cc(/C=N/NC(=O)c2ccncc2)ccc1Oc1ccc([N+](=O)[O-])cn1
0.16	-1.09	CC(C(=O)Nc1ccc2c(c1)OCCO2)N1CCN(C(=O)c2ccco2)CC1 (centres undefined)
1.02	1.84	CCOC(=O)c1cnc(SC)nc1N1CCCC1
1.39	-1.05	Cc1cc(C)c2nc(NNC(=O)c3ccc(S(=O)(=O)N4CCc5ccccc5C4)cc3)sc2c1
1.04	-1.88	COc1ccccc1N1CCN(C(=O)Nc2ccc([N+](=O)[O-])cc2)CC1
0.06	-0.97	O=C1CC(=O)N2N=C(c3ccc([N+](=O)[O-])cc3)SC2=N1
0.51	0.17	S=C(NCCCc1ccccc1)Nc1ccccc1Cl
0.83	-0.98	Cc1cc(N(C)C)ccc1[N+](=O)[O-]
1.35	-2.26	COc1ccc(NC(=O)C2CCN(S(=O)(=O)c3ccc4c(c3)NC(=O)C(C)S4)CC2)cc1 (centres undefined)
0.24	0.56	CC(CCC(=O)O)C1CCC2C3CCC4C[C@H](O)CCC4(C)C3CC(=O)C12C (some centres undefined)
2.11	-1.86	CCOC(=O)N1CCN(C(=O)c2c(-c3c(Cl)cccc3Cl)noc2C)CC1
0.19	-0.16	O=C(O)c1sccc1Oc1ccc(NS(=O)(=O)c2ccccc2)cc1
0.32	0.36	O=C(Nc1cccc(Cl)c1Cl)c1cc(S(=O)(=O)NCCc2ccccc2)ccc1F
0.08	0.88	CCCOC(=O)c1ccc(NC(=O)C2CCCO2)cc1 (centres undefined)
0.03	-1.12	COC(=O)Nc1ccc(S(=O)(=O)Nc2ccc(C(=O)O)cc2)cc1
1.12	1.25	O=C(Cc1cccs1)N(c1ccc(Cl)cc1)C1C=CS(=O)(=O)C1 (centres undefined)
0.01	-2.65	O=C(COC(=O)CNS(=O)(=O)c1c(Cl)cccc1Cl)Nc1ccccc1Sc1ccccc1
0.07	0.05	CCOC(=O)c1nn(-c2sc(C(=O)OC)c(C)c2C(=O)OC)cc1O

Of the compounds above, these have bromine:
KCNQ2 pot	KCNQ2 pot baseline	Molecule
1.83	-0.29	O=C(N/N=C/c1ccc2nccnc2c1)c1ccc(Br)cc1
1.26	-0.42	O=C(OCCOc1ccc(Br)cc1)c1cnccn1

Further results.
KCNQ2 pot	KCNQ2 pot baseline	Molecule
0.15	0.79	O=C(COC(=O)c1ccc2c(c1)C(=O)N(c1cccc3ncccc13)C2=O)c1ccc(Cl)cc1
0.01	-1.04	CN(CC(=O)Nc1nc2ccccc2s1)S(=O)(=O)c1ccccc1
1.21	-1.66	COC(=O)c1ccc(CSc2nnc(-c3c[nH]c4ccccc34)n2C)o1
1.67	2.86	NNC(=O)CNC(=O)c1ccccc1F
0.15	0.46	Clc1ccc(OCc2nn3c(-c4ccncc4)nnc3s2)cc1
0.33	1.8	CC1=C(c2ccc(Cl)cc2)[N+](=O)C(C)(C)N1[O-]
1.7	0.7	O=c1[nH]c(Cc2ccccc2)nc2ccccc12
0.37	-0.61	Cc1cc(C)cc(NC(=S)N2CCC(NC(=O)c3ccccc3C)CC2)c1
1.1	-0.59	O=C1COc2ccc(C(=O)COC(=O)C3CCN(S(=O)(=O)c4cccs4)CC3)cc2N1
0.01	0.78	O=C(Nc1cccnc1)c1ccc(COc2ccccc2Br)o1
0.75	-0.78	CCN(CC)C(=O)CSc1nnc(-c2ccccn2)n1-c1ccc(C)c(C)c1
0.95	-1.13	O=C1CC(=C2c3ccccc3-c3ccccc32)C(=O)N1CCN1CCN(c2cccc(Cl)c2)CC1
2.39	-0.25	CCC(O)(CC)C(=O)N/N=C/c1cc(Br)cc(Br)c1O
1.85	0.11	O=C(N/C(=C\c1cccc([N+](=O)[O-])c1)C(=O)N1CCCCC1)c1cccs1
1.13	-0.13	COc1ccc(NC(=O)c2sccc2C)c([N+](=O)[O-])c1
1.28	-0.06	c1ccc(-c2ccc(C3=Nn4c(Cn5nnc6ccccc65)nnc4SC3)cc2)cc1
0.8	-0.03	Cc1nnc(SCC(=O)n2c3c(c4ccccc42)CCCC3)s1
1.51	-0.97	O=C(CN1C(=O)C2C3C=CC(C4CC34)C2C1=O)Oc1ccccc1 (centres undefined)
0.54	0.89	COCc1cc(C)n(CC(=O)Nc2cccc(C)c2)c(=O)c1C#N
1.51	0.7	O=C(OCC(=O)N1CCN(c2ccccc2)CC1)c1nc(Cl)ccc1Cl

A different layout for four compounds above.
Fields – KCNQ2 pot | KCNQ2 pot baseline
- COc1cc(/C=N/NC(=O)c2ccncc2)ccc1Oc1ccc([N+](=O)[O-])cn1
    1.25 | -0.13
- Cc1cc(C)cc(NC(=S)N2CCC(NC(=O)c3ccccc3C)CC2)c1
    0.37 | -0.61
- CCOC(=O)N1CCN(C(=O)c2c(-c3c(Cl)cccc3Cl)noc2C)CC1
    2.11 | -1.86
- CC(=O)N(C)c1ccc(NC(=O)C(F)(F)F)cc1
    2.36 | -0.65

Carrying on.
KCNQ2 pot	KCNQ2 pot baseline	Molecule
0.86	0	CC(=O)Nc1ccc(NC(=O)C(c2ccccc2)c2ccccc2)cc1
0.05	0.55	CS(=O)(=O)N1c2ccccc2[C@]2(Br)C[C@H]3C(=O)N[C@@H](Cc4ccccc4)C(=O)N3[C@H]12
1.04	-0.07	Cc1oc(-c2ccccc2)cc1C(=O)Nc1ccc(N(C)C)cc1
0.81	0.85	Cn1nc(C(C)(C)C)c([N+](=O)[O-])c1C(=O)NCCO
0.53	0.5	COc1ccccc1NC(=O)c1ccc2c(c1)N(CC#N)C(=O)C(C)(C)O2
0.25	0.58	CN(CC(=O)O)S(=O)(=O)c1ccc2oc3ccccc3c2c1
0.38	0	Cc1cc(C)c(C)c(S(=O)(=O)N2CCN(c3ccc(O)cc3)CC2)c1C
0.73	0.08	O=C(Cc1cccs1)NCc1ccco1
0.28	-0.84	CC1=C(C(=O)OCC(Cl)(Cl)Cl)N2C(=O)C(NC(=O)Cc3ccccc3)C2SC1 (centres undefined)
0.07	-0.73	CCOc1ccc(CN2CCN(Cc3cccc4nonc34)CC2CCO)cc1 (centres undefined)
1.57	1.04	Cc1cc(=O)[nH]c(N2CCCC2)n1
4.18	-1.49	CCc1ccc(NC(=O)C(C)Sc2nc(-c3ccco3)c(C#N)c(=O)[nH]2)cc1 (centres undefined)
0.44	-0.4	CC1CCCC(C)N1C(=O)CSc1nnnn1-c1cccc2c1CCCC2 (centres undefined)
0.56	-0.72	CCS(=O)(=O)c1nc(S(=O)(=O)c2ccc(Cl)cc2)c(NCCOC)s1
0.25	-0.02	CCOC(=O)c1nc(NCc2ccccc2)c2ccccc2n1
0.56	0.84	COc1cc(C(=O)NCc2nnc(SCC(=O)NCc3ccco3)o2)cc(OC)c1OC
0.11	0.55	CCn1c(C)cc(C=C2C(=O)c3ccccc3C2=O)c1C
2.48	-0.43	O=C(NC(=S)N1CCN(c2ccc([N+](=O)[O-])cc2Cl)CC1)c1ccco1
0.35	-1.37	O=C1CCC(C(=O)OCc2cc(Cl)ccc2OC(F)F)N1 (centres undefined)
0.71	0.99	Cc1ccccc1CSc1nnc(NC(=O)Cc2cccs2)s1
0.65	0	CC(=O)Nc1cccc(NC(=O)Nc2cccc(Cl)c2C)c1
0.07	1.21	COc1cccc(NC(=O)CSc2ccc(-c3sc(C)nc3C)nn2)c1
0.93	0.02	Cc1cc(=O)[nH]n(CCO)c1=O
1.07	-0.48	O=C1c2ccccc2C(Nc2ccc3nc(-c4cccnc4)[nH]c3c2)N1Cc1ccco1 (centres undefined)
0.52	0.44	Cc1ccccc1N1C(=O)CC(c2c[nH]c3ccccc23)C1=O (centres undefined)
1.22	1.18	Cc1cc(-c2nc3ncccc3o2)ccc1NC(=O)CC(C)C
0.57	-0.4	Cc1c(Cl)cccc1NC(=O)CC1SC(=NCC2CCCO2)NC1=O (centres undefined)
0.37	1.04	C[n+]1cn(Cc2cc(Cl)ccc2OC(F)F)c2ccccc21
1.09	0.5	COc1ccc(C(CC(=O)O)NC(=O)COc2cc(C)ccc2C)cc1OC (centres undefined)
0.03	0.9	O=S(=O)(Nc1nc2ccccc2nc1NCc1ccco1)c1cccs1
0.95	0.67	CCC(c1nnnn1CCOC)N(Cc1cc2c(C)cc(C)cc2[nH]c1=O)CC1CCCO1 (centres undefined)
0.54	0.5	COc1cccc(/C=N/NC(=O)CN(C2=NS(=O)(=O)c3ccccc32)c2ccccc2)c1
0.83	1.05	CCN(C(=O)CSc1nnc(Nc2ccccc2)s1)C1CCS(=O)(=O)C1 (centres undefined)
1.67	1.91	S=c1[nH]nc(-c2ccco2)n1/N=C/c1ccc(Cl)cc1
0.61	0.48	O=C(Nc1ccc2oc(-c3ccccc3)nc2c1)c1cc(-n2cnnc2)ccc1Cl
3.03	1.14	COC(=O)C1=NN[C@H](C(=O)OC(C)(C)C)[C@H]1c1ccccc1
0.19	-1.13	COc1ccc(N2CC(C(=O)NCCc3ccc(Cl)cc3)CC2=O)cc1 (centres undefined)
0.08	-0.65	N/C(Cc1ccc([N+](=O)[O-])cc1)=N\OC(=O)Cc1ccccc1
0.23	0.38	CC1=CC(=O)[C@H]2C(C)(C)CCC[C@]2(C)[C@@]1(O)CO
0.86	-0.56	Cc1ccc(NC(=O)NCc2nc3ccccc3n2C)cc1
2.29	-0.89	Nc1ccc(O)c2c(=O)cc(-c3ccccc3Cl)oc12
0.83	-0.86	Cc1ccc2oc(-c3cccc(NC(=O)c4ccc(Br)o4)c3)nc2c1
0.09	-0.7	CC(C)(O)C#Cc1ccc(CN2CCCC(CNC(=O)c3ccco3)C2)cc1 (centres undefined)
0.57	-2.06	Clc1ss/c(=N\c2ccccn2)c1Cl
1.71	-0.56	COc1ccccc1CNC(=O)c1cnccn1
0.33	0.06	O=C(O)CC(C(=O)N(c1ccccc1)c1ccccc1)N1CCOCC1 (centres undefined)
0.71	-0.85	Cc1nc(C(=O)NNC(=O)c2c(-c3c(Cl)cccc3Cl)noc2C)cs1
0.15	-0.8	Brc1cccc(/C=N\n2cnnc2)c1
1.29	1.47	O=c1[nH]cnc2c1c(-c1ccccc1)cn2-c1ccc(F)cc1
0.79	0.49	O=C1CCC(=O)N(O)CCCCCNC(=O)CCC(=O)N(O)CCCCNC(=O)CCC(=O)N(O)CCCCCN1

Complete entries, looked up by structure. Values in the order: KCNQ2 pot	KCNQ2 pot baseline
Profile of `CC(C)(O)C#Cc1ccc(CN2CCCC(CNC(=O)c3ccco3)C2)cc1` (centres undefined) = 0.09	-0.7
Profile of `Nc1ccc(O)c2c(=O)cc(-c3ccccc3Cl)oc12` = 2.29	-0.89
Profile of `O=C1CCC(=O)N(O)CCCCCNC(=O)CCC(=O)N(O)CCCCNC(=O)CCC(=O)N(O)CCCCCN1` = 0.79	0.49
Profile of `Cc1ccc2oc(-c3cccc(NC(=O)c4ccc(Br)o4)c3)nc2c1` = 0.83	-0.86
Profile of `O=C(O)CC(C(=O)N(c1ccccc1)c1ccccc1)N1CCOCC1` (centres undefined) = 0.33	0.06
